# Mtb growth – Confirmatory growth inhibition assay against Mycobacterium tuberculosis H37Rv, potency (AID 1949). actives 1.6% (n = 100,000). most inactive calls were filed without a number and no value below 0 was filed. inhibition, % at 10 µg/mL, or IC50 in µg/mL where a hit was titrated;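 active = confirmed in a dose series; inconclusive = about 50% or more but not retested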;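 note: bacteria grown 7 days with compound before Alamar blue readout; 0% = untreated bacteria and 100% = reference antibiotic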
# Starred values were filed as active, the others as inactive; i = inactive; ? = inconclusive. This is a subset. The share of hits here may be higher or lower than overall.
SMILES,Mtb growth
O=C(CSc1nnc(-c2ccncc2)o1)NC1CC2CCC1C2 (stereo not drawn),i
Cc1cc(=O)oc2cc(NC(=S)NCCCN3CCCC3=O)ccc12,i
COC(=O)c1cc(Br)ccc1NC(=O)c1cccnc1,i
O=C(CSc1ncn(-c2ccccc2)n1)Nc1ccccc1Cl,i
O=C(NCc1ccccc1)c1cccnc1N1CCOCC1,i
O=C(NCCN1CCOCC1)c1cc2ccccc2o1,i
COc1ccc(OCC(=O)Oc2ccc(Cl)cc2C)cc1,i
CC(C)Oc1cccc(C(=O)Nc2ccc(-c3nc4ncccc4o3)cc2)c1,1.6%
Cc1cc(C)n(C(=O)c2cc(-c3ccc(C)o3)nc3ccccc23)n1,i
COC(=O)c1ccc(NC(=S)Nc2ccc(O)cc2)cc1,i
COc1cc(C)c(S(=O)(=O)N2CCCCC2)cc1C(C)C,i
CCN(CC)c1ccc(NC(=O)c2cc(Br)cc(C)c2OC)c(C)c1,2.4%
CNS(=O)(=O)c1ccc(NC(=O)C2CC3C=CC2C3)cc1 (stereo not drawn),i
CC(=O)c1ccc(Oc2nnnn2-c2ccccc2)cc1,i
Cc1coc(C)c1C(=O)CC1(O)C(=O)Nc2ccccc21 (stereo not drawn),i
O=C(NCc1ccco1)c1ccc(CSc2ccc(Cl)cc2)cc1,i
CCOc1ccc(-c2csc3ncn(CCCc4ccccc4)c(=O)c23)cc1,10.3%
CSc1cccc(NC(=O)CSc2nnc(COc3ccccc3Cl)n2C)c1,i
CCc1cc2c(=O)c(-c3ccccc3Cl)c(C)oc2cc1O,1.9%
CCOC(=O)c1sc(NC(=O)CSc2n[nH]c(C)n2)nc1C,i
O=C(Nc1nc(-c2ccc(Cl)cc2Cl)cs1)c1ccco1,i
CCOC(=O)c1ccc(NC(=O)CSc2nc3sc(C)c(C)c3c(=O)n2C)cc1,i
CC1=C(C(=O)OCc2ccccc2)C(c2ccc(F)cc2)NC(=S)N1 (stereo not drawn),47.1%
CCC(=O)Oc1cccc2ccc(/C=C/c3cc([N+](=O)[O-])ccc3OC)nc12,9.7%
CC(Sc1nc2ccccc2[nH]1)C(=O)O (stereo not drawn),i
COc1ccc(-c2nnc(SCC(=O)Nc3ccc(F)cc3)n2C)cc1,i
O=C(CN1CC(c2ccccc2)CC1=O)OCc1ccccc1F (stereo not drawn),3.3%
CCC(C)NCCOCCOc1ccc(C)cc1Cl (stereo not drawn),i
CCC(=O)N(Cc1cc2ccc(C)cc2[nH]c1=O)c1cc(C)ccc1C,i
CSc1ccccc1-n1nnnc1SCC(=O)Nc1ccccc1Cl,i
Cc1ccc(NC(=O)CN(C2CCCCC2)S(=O)(=O)c2ccccc2)cc1,i
O=C(NCCCN1CCCC1)Nc1ccc(F)cc1,2.0%
CCc1ccc(C(=O)NNC(=S)NCCCOC)s1,i
CCCN(CCC)CCCNC(=O)C(=O)Nc1ccc(Cl)c(Cl)c1,i
CCOc1cc(/C=C2/N=C(c3ccc(NC(C)=O)cc3)OC2=O)ccc1OC(=O)c1cccs1,2.5%
COc1cc(C(=S)N2CCOCC2)cc(OC)c1OC(=O)c1ccccc1[N+](=O)[O-],i
Fc1ccccc1Cn1c(C2CC2)nc2ccccc21,1.6%
Cc1onc(-c2c(F)cccc2Cl)c1C(=O)NCc1ccccc1,i
CCCCOc1ccc(C(=O)Nc2cccc3c([N+](=O)[O-])cccc23)cc1,i
C=CCN(CC=C)C(=S)Nc1cc(C)ccc1OC,1.9%
O=C(NCc1ccccc1)c1ccccc1NC(=O)C1CCCCC1C(=O)O (stereo not drawn),i
CCCCn1c(-c2ccc(OC)c(OC)c2)n[nH]c1=S,i
Cc1ccc(-c2nnc(SCC(=O)Nc3ccc(Br)c(Cl)c3)n2C)cc1,2.8%
Cc1nc(NCC2CCCO2)c2c(C)c(C)sc2n1 (stereo not drawn),i
CCCOc1ccc(N2C(=O)CC(NNC(N)=O)C2=O)cc1 (stereo not drawn),i
COc1ccc(-c2cc(C(=O)NCc3cccnc3)c3ccccc3n2)cc1,i
Fc1ccc(NC(=S)Nc2ccc(Br)cc2)cc1,i
O=C(Nc1nnc(Cc2ccc(Cl)cc2)s1)c1ccc2c(c1)OCO2,i
O=C(c1ccccc1)c1cn(CC(=O)N2CCc3ccccc3C2)c2ccccc12,i
O=C(O)c1ccccc1SC1CC(=O)N(C2CCCCC2)C1=O (stereo not drawn),1.8%
Cc1nc(-c2ccc(NC(=O)c3ccc(Br)cc3)cc2)cs1,i
Cc1ccc(S(=O)(=O)N(CC(=O)Nc2ccc(F)cc2F)Cc2cccc(Cl)c2)cc1,i
COc1cc([N+](=O)[O-])ccc1NC(=S)NCCC1=CCCCC1,i
O=C(NC(Cc1ccccc1)C(=O)NCc1ccco1)c1ccccc1 (stereo not drawn),i
CCCNC(=O)c1ccc(COc2ccc(C)cc2)o1,i
CC1=C(C(=O)N2CCOCC2)C(c2cccs2)NC(=O)N1 (stereo not drawn),i
O=C(CSc1nnc(Cc2ccccc2)n1-c1ccc(Cl)cc1)Nc1ccccc1C(F)(F)F,i
O=C(NC(=S)Nc1cccc(Cl)c1Cl)c1cccc2c(Br)cccc12,21.1%
Cc1cc(C)c(NC(=O)COc2ccc([N+](=O)[O-])cc2)c(Cl)c1,26.2%
CCOc1cc(C(=S)N2CCOCC2)ccc1OCc1ccccc1F,i
# The results go on.
SMILES,Mtb growth
CC(C)c1ccccc1NC(=O)COc1ccc2c(=O)c(Oc3ccc4ccccc4c3)coc2c1,i
Fc1ccc(NC(=S)NCC2CCCO2)cc1Cl (stereo not drawn),i
CCc1ccccc1NC(=O)c1ccc(OC(C)C)cc1,6.8%
COC(=O)c1ccc(NC(=O)CSCc2ccccc2C)cc1,i
CCC(=O)Nc1nnc(SC(CC)C(=O)Nc2nccs2)s1 (stereo not drawn),0.9%
CCc1cccc(C)c1NC(=O)CC12CC3CC(CC(C3)C1)C2,i
Cc1ccc(NS(=O)(=O)c2ccc(NC(=O)C(F)(F)F)cc2)c(C)c1,i
CCC(C)NCCCCOc1cc(C(C)C)ccc1C (stereo not drawn),8.0%
O=C(CSc1nnc(-c2ccc([N+](=O)[O-])cc2)n1Cc1ccccc1)NC1CCCCC1,i
N#CC1=C(N)SC(N)=C(C#N)C1c1ccccc1OCc1ccccc1Cl,i
Cc1sc2nc(SCC(=O)Nc3ccc(S(N)(=O)=O)cc3)[nH]c(=O)c2c1C,i
Cc1nc2ccc(C(=O)Nc3cccnc3)cc2s1,i
CS(=O)(=O)N(CC(=O)Nc1ccccc1C(F)(F)F)c1cc(Cl)ccc1Cl,5.7%
COC(=O)c1ccccc1NC(=S)NC(=O)Cc1ccc(OC)cc1,i
CC1(C)CC(CC(=O)NC(=S)Nc2ccc([N+](=O)[O-])cc2)C(=O)O1 (stereo not drawn),i

# Reprinted from the part before: six compounds, followed by the next part.
SMILES,Mtb growth
N#CC1=C(N)SC(N)=C(C#N)C1c1ccccc1OCc1ccccc1Cl,i
Cc1sc2nc(SCC(=O)Nc3ccc(S(N)(=O)=O)cc3)[nH]c(=O)c2c1C,i
Cc1nc2ccc(C(=O)Nc3cccnc3)cc2s1,i
CS(=O)(=O)N(CC(=O)Nc1ccccc1C(F)(F)F)c1cc(Cl)ccc1Cl,5.7%
COC(=O)c1ccccc1NC(=S)NC(=O)Cc1ccc(OC)cc1,i
CC1(C)CC(CC(=O)NC(=S)Nc2ccc([N+](=O)[O-])cc2)C(=O)O1 (stereo not drawn),i
COc1ccc(C(=O)Nc2ccccc2C(=O)NC(C)C)cc1OC,i
CCCCOc1ccc(C(=O)NC2CCCC2)cc1,i
Clc1ccc(OCCN2CCOCC2)cc1Cl,2.5%
O=C(NNC(=O)c1ccc(Cl)s1)Nc1ccc2c(c1)OCO2,i
O=C(Nc1ccc(Br)cc1)C1CCCN1S(=O)(=O)c1ccc(F)cc1 (stereo not drawn),?
O=C(Cc1ccccc1)Nc1ccc(Cl)c(C(=O)O)c1,i
Cc1ccc(OCCN2CCN(c3ncnc4scc(-c5ccccc5)c34)CC2)cc1,i
COc1ccccc1NC(=O)N1CCN(c2ccccc2OC)CC1,i
COc1cc(COc2ccc3c(C)c(Cc4ccccc4)c(=O)oc3c2C)cc(OC)c1OC,12.9%
CS(C)=C1C(=O)NC(=O)N(CCc2ccc(F)cc2)C1=O,i
Cc1cccc(C)c1OCC(=O)NNC(=O)c1ccncc1,i
CCc1nccn1S(=O)(=O)c1cc(C)c(OC)cc1C,i
O=C(Nc1cccc([N+](=O)[O-])c1)C1C2/C=C\CCCCC21 (stereo not drawn),i
Cc1ccc(NS(=O)(=O)c2ccc(NC(=S)NC(=O)c3ccc(F)cc3)cc2)c(C)c1,8.09µg/mL*
CCCCn1c(NC(=O)c2cccc([N+](=O)[O-])c2)c(C(=O)OCC)c2nc3ccccc3nc21,i
Cc1nc2cc(NC(=O)N3CCCCC3)ccc2n1C,i
Cc1ccc(N(O)C(=O)Nc2ccccc2)cc1,i
CCOC(=O)Cn1c2ccc(Cl)cc2c2nc3ccccc3nc21,i
Cc1ccc(NC(=O)Cc2ccccc2)c(NC(=O)Cc2ccccc2)c1,i
O=C(COc1ccc(C(=S)N2CCC(Cc3ccccc3)CC2)cc1)N1CCOCC1,i
Cc1cc(-c2csc(Nc3ccc(S(N)(=O)=O)cc3)n2)ccc1F,2.34µg/mL*
O=C(c1cnn2cccnc12)N1CCN(Cc2ccc3c(c2)OCO3)CC1,i
Cc1ccc(C(=O)NNC(=O)c2ccncc2)cc1C,i
CC(NC(=O)c1cccs1)C(C)(C)C (stereo not drawn),i
O=C(CC12CC3CC(CC(C3)C1)C2)NC(=S)Nc1ccc(N2CCCC2)cc1,i
CCC(=O)NCCc1nc2ccccc2n1Cc1ccccc1Cl,i
CCOc1ccc(-n2c(Cc3ccccc3)n[nH]c2=S)cc1,i
CN(C(=O)c1ccc(N2C(=O)CCC2=O)cc1)c1ccccc1,i
CCOC(=O)c1c(N)n(Cc2ccccc2C(F)(F)F)c2nc3ccccc3nc12,i
Cc1ccc(C(=O)N/C(=C\c2ccc(Cl)cc2)C(=O)NCc2ccncc2)cc1,0.3%
O=C(Nc1cccc(F)c1)c1ccccc1I,i
COc1ccc(NC(=O)C2CC(=O)OC23CCCC3)cc1 (stereo not drawn),i
C=CCNc1cc(N2CCN(C(=O)C(C)(C)C)CC2)ccc1[N+](=O)[O-],i
Cc1ccnc(SCC(=O)Nc2ccc(Oc3ccccc3)cc2)n1,i
COc1ccc2cc(C(=O)Nc3cccc(C)c3C)c(=O)oc2c1,i
CC(=O)Nc1ccccc1NC(=O)CCC1CCCCC1,i
CCCCC1CCC(C(=O)Nc2nnc(C)s2)CC1 (stereo not drawn),1.0%
COC(=O)Nc1ccc(OC)cc1[N+](=O)[O-],1.7%
Cc1cnc(NC(=O)CSc2nc3ccccc3s2)s1,17.0%
COc1cc(N/C(=N\S(=O)(=O)Cc2ccccc2)Nc2nc(C)cc(C)n2)cc(OC)c1,i
N#Cc1c(NC(=O)CCN2C(=O)c3ccccc3C2=O)sc2c1CCCCC2,i
FC(F)C(F)(F)C1=CC(c2cccs2)=NCCN1,i
Cc1cccc(N(CC(=O)N(C)C)S(C)(=O)=O)c1,i
Cc1cc(C)cc(NC(=O)CSc2nc(C)cc(C)n2)c1,i
O=C(CSc1ccccn1)N1CCN(c2ccccc2)CC1,i

# Looked up by compound from above:
SMILES,Mtb growth
CCCCC1CCC(C(=O)Nc2nnc(C)s2)CC1 (stereo not drawn),1.0%
N#Cc1c(NC(=O)CCN2C(=O)c3ccccc3C2=O)sc2c1CCCCC2,i
O=C(Nc1cccc(F)c1)c1ccccc1I,i
COc1cc(N/C(=N\S(=O)(=O)Cc2ccccc2)Nc2nc(C)cc(C)n2)cc(OC)c1,i
Cc1cnc(NC(=O)CSc2nc3ccccc3s2)s1,17.0%
Cc1cc(C)cc(NC(=O)CSc2nc(C)cc(C)n2)c1,i
COC(=O)Nc1ccc(OC)cc1[N+](=O)[O-],1.7%
Cc1cccc(N(CC(=O)N(C)C)S(C)(=O)=O)c1,i

# (listing goes on)
SMILES,Mtb growth
O=C(CC1CCCCC1)N1CCN(c2ccccn2)CC1,i
NC1=NC2(CCCC2)N=C(Nc2cccc3ccccc23)N1,i
COCCNCCCOc1ccc(C)cc1Br,i
O=C(CN1C(=O)c2cccc3cccc1c23)NCCSCc1ccccc1,i
COCCCN=C1NS(=O)(=O)c2ccccc21,i
COc1ccc(OC)c(N(CC(=O)NC2CCCCCC2)S(C)(=O)=O)c1,i
Cc1ccc(C(=O)N2CCN(c3ccc([N+](=O)[O-])c(N4CCc5ccccc5C4)c3)CC2)cc1,46.6%
CCc1c(C)sc(NC(=S)NNC(=O)c2cccnc2)c1C(=O)OC,i
Cc1cccc(C)c1NC(=O)C(=O)NCc1cccnc1,i
CC(=O)N1N=C(c2ccncc2)OC12CCCCC2,i
Cc1cc(C)n2nc(C(F)(F)F)c(-c3ccccc3)c2n1,4.8%
Cc1cc(C(C)(C)C)cc(S(=O)(=O)Nc2ccccc2C(=O)O)c1C,i
Cc1ccc(N(Cc2ccc(C(=O)NC3CCCCCC3)cc2)S(C)(=O)=O)cc1C,i
Cc1ccc(S(=O)(=O)CC(=O)Nc2ccccc2-c2ccccc2)cc1,i
CCOc1ccccc1-c1nnc(SCC(=O)NC2CC3CCC2C3)n1CC (stereo not drawn),i
O=C(c1nc(SCc2ccccc2)ncc1Cl)N1CCN(c2cccc(Cl)c2)CC1,4.5%
COC(=O)Cc1c(C)c2ccc(OCc3ccccc3OC)c(C)c2oc1=O,i
O=C(CNC(=O)c1ccccc1F)NCCOc1ccccc1Cl,i
Cc1cc(NS(=O)(=O)c2ccc(NC(=O)c3ccccc3C)cc2)nc(C)n1,i
